NOMO-1 viab = STK33 inhibitor candidate reducing NOMO-1 cell viability; AID 2330; NOMO-1 AML viability, CellTiter-Glo luminescence, 72 h; inhibition, % (no concentration beside the values); actives 7.5% (n = 37,000);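 active = most replicates above 80%; inconclusive = exactly half above 80%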;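 also: wells of about 30 µL received 25 nL stock; 0% = median of vehicle wells and 100% = reference inhibitor level; the first replicate is given; inactives centre near 10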
* marks the source's active call; other numbers are inactive results; ? = inconclusive. Some of the compounds tested; count on the stated rates, not on these rows.

SMILES | NOMO-1 viab
C[C@H]1CN([C@@H](C)CO)C(=O)c2cc(N(C)C)ccc2O[C@H]1CN(C)C(=O)Nc1ccc2c(c1)OCO2 | -9
CCCn1nnc(NC(=O)COc2ccc(Cl)c(C)c2)n1 | -3
COc1ccc(C)cc1N(CC(=O)Nc1ccccc1C(=O)O)S(C)(=O)=O | -2
CNC[C@H]1Oc2ccc(NC(=O)Nc3ccc(C(F)(F)F)cc3)cc2CC(=O)N([C@H](C)CO)C[C@H]1C | 25
COc1ccc(CN(C)C[C@H]2Oc3ccc(NC(=O)C4CCCCC4)cc3CC(=O)N([C@@H](C)CO)C[C@H]2C)cc1 | 14
C[C@@H]1CN([C@H](C)CO)C(=O)c2cccc(NC(=O)c3cnccn3)c2O[C@H]1CN(C)C(=O)Nc1ccc(C(F)(F)F)cc1 | 24
CC1(C)Cc2nc(-c3ccccc3)nc(SCC(=O)Nc3cccc(C(F)(F)F)c3)c2CO1 | 15
Cn1nnc2cc(C(=O)N(CCO)c3ccccc3)ccc21 | -5
C[C@H]1CN([C@@H](C)CO)C(=O)c2cc(NC(=O)Cc3ccccc3)ccc2O[C@H]1CN(C)Cc1ccc(Cl)c(Cl)c1 | 15
C[C@@H]1CN([C@H](C)CO)C(=O)c2cccc(NC(=O)C3CC3)c2O[C@H]1CN(C)CC1CCCCC1 | 35
CC(Oc1ccc(C(C)(C)C)cc1)c1nc(-c2ccccn2)no1 (configuration not stated) | 69
COC(=O)c1c(NC(=S)Nc2cnccn2)sc2c1CCC(C)C2 (configuration not stated) | 24
CC(C)NC(=O)N(C)C[C@H]1OCCCC[C@@H](C)Oc2ccc(NS(=O)(=O)c3cn(C)cn3)cc2C(=O)N([C@H](C)CO)C[C@@H]1C | -2
COc1ccc(S(=O)(=O)Nc2ccc3c(c2)C(=O)N([C@@H](C)CO)C[C@H](C)[C@@H](CN(C)C(=O)Nc2cccc4ccccc24)O3)cc1 | -8
CC[n+]1ccc(C)c2cc(C(F)(F)F)ccc21 | 20

Some of the entries so far, as labelled records.
C[C@H]1CN([C@@H](C)CO)C(=O)c2cc(NC(=O)Cc3ccccc3)ccc2O[C@H]1CN(C)Cc1ccc(Cl)c(Cl)c1
- NOMO-1 viab: 15
C[C@@H]1CN([C@H](C)CO)C(=O)c2cccc(NC(=O)C3CC3)c2O[C@H]1CN(C)CC1CCCCC1
- NOMO-1 viab: 35
CC(Oc1ccc(C(C)(C)C)cc1)c1nc(-c2ccccn2)no1 (configuration not stated)
- NOMO-1 viab: 69

Remaining list, next part:
SMILES | NOMO-1 viab
COc1cc(O)c(C(=O)/C=C/c2ccc(OC)c(OC)c2)c(OC)c1 | 33
C[C@@H]1CN([C@@H](C)CO)C(=O)Cc2cc(NC(=O)C3CC3)ccc2O[C@@H]1CN(C)Cc1ccc2c(c1)OCO2 | 10
Cc1ccc(S(=O)(=O)N(C)C[C@@H]2Oc3ccc(NC(=O)Nc4c(C)noc4C)cc3C(=O)N([C@H](C)CO)C[C@H]2C)cc1 | 21
C[C@H](CO)N1C[C@H](C)[C@@H](CN(C)C)Oc2ccc(NC(=O)CCCN(C)C)cc2C1=O | -3
COc1ccc(S(=O)(=O)Nc2ccc3c(c2)C(=O)N([C@H](C)CO)C[C@H](C)[C@H](CN(C)Cc2ccc4c(c2)OCO4)O3)cc1 | 7
Cn1c(Cc2ccc(Cl)cc2)nnc1SCc1nc2ccccc2c(=O)n1-c1cccc(C(F)(F)F)c1 | 13
Cc1cc(C)c(S(=O)(=O)N(C)CC(=O)Nc2cc(Cl)ccc2C)c(C)c1 | 33
COc1ccc(NC(=O)N(C)C[C@@H]2Oc3ccc(NC(=O)Nc4ccc(C(F)(F)F)cc4)cc3C(=O)N([C@@H](C)CO)C[C@@H]2C)cc1 | 20
C[C@@H]1CN([C@H](C)CO)C(=O)Cc2cc(NC(=O)CCCCCC(=O)Nc3ccccc3N)ccc2O[C@H]1CN(C)CC1CCCCC1 | 120*
C[C@@H]1CCCCO[C@@H](CN(C)Cc2ccc(C(=O)O)cc2)[C@@H](C)CN([C@H](C)CO)C(=O)c2cc(NC(=O)Nc3ccc(C(F)(F)F)cc3)ccc2O1 | 20
Cc1ccc(C(=O)NCCCNc2ccccc2[N+](=O)[O-])cc1 | 15
C[C@@H]1CN([C@H](C)CO)C(=O)c2cc(NC(=O)C3CC3)ccc2O[C@@H]1CN(C)C(=O)Nc1ccc(C(F)(F)F)cc1 | -12
C[C@@H]1CN([C@H](C)CO)C(=O)Cc2cc(NS(=O)(=O)c3cccs3)ccc2O[C@H]1CN(C)Cc1ccc(C(=O)O)cc1 | 22
COc1cc2ncnc(Nc3ccc(OCc4ccccc4)cc3)c2cc1OC | 19
Cc1ccc([N+](=O)[O-])cc1N(CC(=O)Nc1ccc(Cl)c(C(F)(F)F)c1)S(C)(=O)=O | 67
COc1ccc(NC(=O)N(C)C[C@H]2Oc3ccc(NC(=O)Cc4cn(C)c5ccccc45)cc3CC(=O)N([C@@H](C)CO)C[C@@H]2C)cc1 | 12
COC(=O)c1ccc(NC(=O)CC2Sc3ccc(C(F)(F)F)cc3NC2=O)cc1 (configuration not stated) | 66
CN(C(=O)CSc1nc(N)c2c3c(sc2n1)CSC(C)(C)C3)c1ccccc1 | 61
Nc1nnc(SCC(=O)NC2CCCCCC2)s1 | -22
Cc1ccc(OCC(=O)Nc2cccc(-c3nc4ccccc4[nH]3)c2)cc1 | 7
COc1ccc(CN(C)C[C@@H]2Oc3c(NS(=O)(=O)c4cn(C)cn4)cccc3C(=O)N([C@H](C)CO)C[C@H]2C)cc1 | -10
COC(=O)c1ccccc1NC(=O)COc1cccc(Cl)c1Cl | -1
Cc1cc(C(=O)CSc2nnc3ccccn23)c(C)n1-c1cc(Cl)ccc1Cl | 11
O=C1c2ccccc2C(=O)N1CCc1nc2ccccc2c(=O)n1Cc1ccccc1 | 33
COc1ccc(S(=O)(=O)Nc2ccc3c(c2)C(=O)N([C@H](C)CO)C[C@H](C)[C@H](CN(C)C(=O)Nc2c(C)noc2C)OCCCC[C@@H](C)O3)cc1 | 23
COc1ccc(CN(C)C[C@H]2Oc3ccc(NC(=O)Nc4ccc(F)cc4)cc3C(=O)N([C@H](C)CO)C[C@@H]2C)cc1 | 23
C[C@H]1CN([C@@H](C)CO)C(=O)c2cc(NC(=O)Nc3ccc4c(c3)OCO4)ccc2O[C@@H]1CN(C)C(=O)NC1CCCCC1 | 0
Cc1ccc(-n2c(SCC(=O)Nc3c(F)cc(F)cc3Br)nc3ccccc3c2=O)cc1 | 27
C[C@H]1CN([C@@H](C)CO)C(=O)c2cccc(NC(=O)C3CCOCC3)c2O[C@@H]1CN(C)CC1CC1 | -23
O=C(NCc1ccco1)c1cc([N+](=O)[O-])ccc1N1CCOCC1 | -10
CCOc1ccccc1NC(=O)CSc1nc2ccccc2c(=O)n1-c1ccc(Cl)cc1 | -15
C[C@@H]1CN([C@@H](C)CO)C(=O)c2cccc(NS(=O)(=O)c3ccccc3)c2O[C@@H]1CN(C)Cc1ccc(-c2ccccc2)cc1 | 98*
C[C@H]1CN([C@@H](C)CO)C(=O)Cc2cc(NC(=O)Cc3ccccc3)ccc2O[C@@H]1CN(C)Cc1ccc(C(=O)O)cc1 | 3
C[C@H]1CN([C@@H](C)CO)C(=O)c2cc(NC(=O)Nc3ccc(F)cc3)ccc2O[C@@H]1CN(C)C(=O)Nc1ccc(F)cc1 | 13
C[C@@H]1CN([C@H](C)CO)C(=O)Cc2cc(NC(=O)c3ccncc3)ccc2O[C@@H]1CN(C)Cc1ccc(Cl)c(Cl)c1 | 49
CCOc1ccc(NC(=O)CN2C(=O)c3ccccc3S2(=O)=O)cc1 | -15
CC(=O)OC[C@]12[C@H](OC(C)=O)[C@H](OC(=O)c3ccccc3)[C@@H]3[C@@H](OC(C)=O)[C@]1(OC3(C)C)[C@H](C)C[C@H](OC(C)=O)[C@@H]2OC(C)=O | 46
Cc1noc(C)c1NC(=O)N(C)C[C@H]1Oc2c(NS(=O)(=O)c3ccc(F)cc3)cccc2C(=O)N([C@@H](C)CO)C[C@@H]1C | -21
Cn1cc([N+](=O)[O-])c(C(=O)NCc2ccco2)n1 | -3
Cn1nc(CC(=O)Nc2ccc3c(c2)oc2ccccc23)c2ccccc2c1=O | 37
CCN1C(=O)/C(=C2\C=Cc3ccccc3N2CC)N(C)C1=S | 64
O=C(c1ccco1)c1cn(CC(=O)N2CCCc3ccccc32)c2ccccc12 | 50
COc1ccc(NC(=O)N(C)C[C@@H]2Oc3ccc(NS(=O)(=O)c4c(C)noc4C)cc3CC(=O)N([C@@H](C)CO)C[C@@H]2C)cc1 | 18
CCOC(=O)c1ccc(NC(=O)Cn2cc(C#N)c3ccccc32)cc1 | 29
Cc1ccc([N+](=O)[O-])cc1S(=O)(=O)NCCOc1ccccc1Cl | -9
C[C@H](CO)N1C[C@H](C)[C@H](CN(C)S(C)(=O)=O)Oc2ccc(NS(=O)(=O)c3ccc(F)cc3)cc2C1=O | -9
Cc1ccc([N+](=O)[O-])cc1N(CC(=O)Nc1cccc(Br)c1)S(C)(=O)=O | 13
C[C@H](CO)N1C[C@H](C)[C@H](CN(C)Cc2ccc(C(=O)Nc3ccccc3N)cc2)Oc2ccc(NS(=O)(=O)c3cccs3)cc2CC1=O | 128*
O=C(CSc1nnc(-c2ccccc2F)n1-c1ccccc1)Nc1ccc(Br)cc1 | 25
Cc1ccc(S(=O)(=O)Nc2ccc3c(c2)C(=O)N([C@H](C)CO)C[C@H](C)[C@H](CN(C)Cc2ccccc2)OCCCC[C@@H](C)O3)cc1 | 45
C[C@H]1CN([C@@H](C)CO)C(=O)c2cccc(NS(=O)(=O)c3ccc(Cl)cc3)c2O[C@H]1CN(C)Cc1ccc(Oc2ccccc2)cc1 | ?
Cc1cc2c(CO)cc(O)cc2o1 | -4
COc1ccc(NC(=O)N(C)C[C@H]2Oc3c(NC(=O)Nc4c(C)noc4C)cccc3C(=O)N([C@@H](C)CO)C[C@@H]2C)cc1 | 7
CCC(=O)Nc1ccccc1-c1nnc(SCc2ccccc2)[nH]c1=O | 5
CC(Sc1nnc(N)s1)C(=O)Nc1cccc(Cl)c1 (configuration not stated) | -3
S=C(Nc1ccccc1)Nc1ccccc1-n1cccc1 | 33
C[C@@H]1CCCCO[C@@H](CN(C)C(=O)Nc2ccccc2)[C@@H](C)CN([C@H](C)CO)C(=O)c2cc(NC(=O)Nc3ccc4c(c3)OCO4)ccc2O1 | -3
C[C@H]1CN([C@@H](C)CO)C(=O)Cc2cc(NC(=O)CCC(F)(F)F)ccc2O[C@@H]1CN(C)C(=O)Nc1ccc(F)cc1 | 10
C[C@H]1CN([C@@H](C)CO)C(=O)c2cc(NC(=O)Nc3cccc4ccccc34)ccc2O[C@@H]1CN(C)Cc1ccc(C(=O)O)cc1 | 3
CCOC(=O)C1=C(C)Nc2ncnn2C1c1ccccn1 (configuration not stated) | 13

Structures shown so far that have an NH in an aromatic ring, in the order listed:
SMILES | NOMO-1 viab
Cc1ccc(OCC(=O)Nc2cccc(-c3nc4ccccc4[nH]3)c2)cc1 | 7
CCC(=O)Nc1ccccc1-c1nnc(SCc2ccccc2)[nH]c1=O | 5

Carrying on:
SMILES | NOMO-1 viab
Cc1ccc(S(=O)(=O)NCC(=O)Nc2ccc(F)cc2F)cc1 | 13
COc1ccc2[nH]c(=O)c(CN(C)S(C)(=O)=O)cc2c1 | -10
O=C(OCC1OC(Oc2ccc(O)cc2COC(=O)C2(O)C(O)CCC(O)C2O)C(O)C(O)C1O)c1ccccc1 (configuration not stated) | 17
C[C@H]1CN([C@@H](C)CO)C(=O)c2cccc(NC(=O)CCCCCC(=O)Nc3ccccc3N)c2O[C@H]1CN(C)CC1CCCCC1 | 52
Cc1sc(NC(=S)NC(=O)c2ccco2)c(C(N)=O)c1C | 29
COc1ccc(NC(=O)CSC2=C(C#N)C(c3ccc(Cl)cc3)CC(=O)N2)cc1 (configuration not stated) | 17
Cc1ccc(S(=O)(=O)Nc2cccc3c2O[C@@H](CN(C)C)[C@@H](C)CN([C@@H](C)CO)C3=O)cc1 | 12
Cc1cc(C(=O)Nc2cccc3c2O[C@@H](CN(C)Cc2ccc(-c4ccccc4)cc2)[C@H](C)CN([C@H](C)CO)C3=O)n(C)n1 | 63
O=C(COc1ccc([N+](=O)[O-])cc1)Nc1ccc(NC(=O)c2ccccc2)cc1 | -1
O=C(NCc1cccnc1)c1cc2nc(-c3cccs3)cc(C(F)(F)Cl)n2n1 | 15
COc1ccc(S(=O)(=O)Nc2ccc3c(c2)CC(=O)N([C@H](C)CO)C[C@@H](C)[C@H](CN(C)S(=O)(=O)c2cn(C)cn2)O3)cc1 | -7
C[C@H](CO)N1C[C@H](C)[C@H](CN(C)S(C)(=O)=O)Oc2ccc(NC(=O)CCCCCC(=O)Nc3ccccc3N)cc2C1=O | -3
Cc1cc(C(=O)CSc2nnc3sc4ccccc4n23)c(C)n1Cc1ccccc1 | -1
O=C(Cn1cc(CO)c2ccccc21)Nc1ccccc1 | 31
COc1ccccc1OCC(=O)Nc1cccc(C(=O)N2CCOCC2)c1 | 14

Three entries out of the list, sorted by length of the SMILES, lowest first:
SMILES | NOMO-1 viab
Cc1sc(NC(=S)NC(=O)c2ccco2)c(C(N)=O)c1C | 29
Cc1ccc(S(=O)(=O)NCC(=O)Nc2ccc(F)cc2F)cc1 | 13
O=C(COc1ccc([N+](=O)[O-])cc1)Nc1ccc(NC(=O)c2ccccc2)cc1 | -1

(more compounds)
SMILES | NOMO-1 viab
C[C@H]1CN([C@@H](C)CO)C(=O)c2cccc(NS(=O)(=O)c3cccs3)c2O[C@@H]1CN(C)Cc1ccc(C(=O)Nc2ccccc2N)cc1 | 58
CC(C)(C)c1ccc(C(=O)C(C#N)=C2SCCCS2)cc1 | 109*
CC1CC(=O)C2C(O)(C1)CC(O)C13OC21C(=O)c1cccc(O)c1C3O (configuration not stated) | 40
COc1ccc(S(=O)(=O)N(C)C[C@H]2Oc3ccc(NS(=O)(=O)c4c(C)noc4C)cc3C(=O)N([C@H](C)CO)C[C@@H]2C)cc1 | -15

Screens from PubChem BioAssay.
